Screens from PubChem.
eIF4H FP inh – inhibitors of RNA binding by human eIF4H; Q15056; eIF4H fluorescence polarization binding assay; inhibition, % at 35 µM; 290,000 compounds, 0.94% hits; AID 2012;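 active = 50% or more with normal probe brightness, or confirmed in later tests; inconclusive = above 50% with abnormal brightness, or retests that disagree; inactive = below 50% or failed in later tests; about a fifth of its hits are not listed in these tables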;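 also: calls also rest on retests at 20 µM and on dose response follow-up; 0% = protein and probe with vehicle and 100% = probe without protein; strong numbers were not always called active; many hits fall short of the cut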
UUG fidelity – alters start codon recognition fidelity in yeast; S. cerevisiae UUG-firefly luciferase reporter, luminescence/redox ratio; activity score, % at 18.7 µM; 350,000 compounds, 0.13% hits;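 active = replicate mean at a twofold rise or more, about +100% in these data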;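 also: firefly luciferase made from a UUG start codon reports start codon fidelity; reporter light over untreated wells divided by growth signal over untreated wells; some hits fall short of that in this replicate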
Env fusion inh – inhibitors of HIV Env-mediated cell fusion; HeLa-JRFL Env/CEM21 cell fusion, luciferase; inhibition, % at 12.3 µM; 360,000 compounds, 1.1% hits; AID 651610;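 active = mean replicate inhibition score of at least 50 and every replicate individually at or above 50; inconclusive = only one of the two criteria met; inactive = mean below 50 and not all replicates reaching 50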;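 also: 0% = plate neutral controls and 100% = maraviroc near 300 nM; one replicate is shown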
MT1-MMP act inh – MT1-MMP (human) activation inhibition; AID 651647; 360,000 compounds, 0.061% hits; HT1080 RFP-PRO-GFP cells, GFP/RFP ratio fluorescence, overnight; percent of plate control window, DMSO zero; GFP/RFP ratio change, % at 20 µM;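 active = GFP/RFP ratio change of at least 30% with cell ATP level not reduced by more than half and red fluorescence within 50% of control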; also: strong numbers were not always called active
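Test system: HT1080 RFP-PRO-GFP cells; Benchmarks: DMSO and RFP-L50D-GFP cell wells; Timing: cells overnight before dosing, compound overnight, 37 °C, 5% CO2; Compound: one 20 µM compound dose with 1% DMSO; Read-out: GFP/RFP fluorescence ratio.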
Rce1 inhib – blocks yeast Ras-converting enzyme; Q03530; yeast membranes, quenched prenylated peptide cleavage fluorescence; calls only; 290,000 compounds, 0.27% hits; AID 2563;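 active = fall in fluorescence gain of 50% or more versus controls, with final raw signal at or below 3038400; inconclusive = same 50% fall but final raw signal above 3038400; inactive = fall in fluorescence gain under 50%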;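 also: plate controls were neutral control wells for no effect and wells lacking membranes for full effect; tested at 10 µM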
Target sequence (Q03530 whole entry, looked up): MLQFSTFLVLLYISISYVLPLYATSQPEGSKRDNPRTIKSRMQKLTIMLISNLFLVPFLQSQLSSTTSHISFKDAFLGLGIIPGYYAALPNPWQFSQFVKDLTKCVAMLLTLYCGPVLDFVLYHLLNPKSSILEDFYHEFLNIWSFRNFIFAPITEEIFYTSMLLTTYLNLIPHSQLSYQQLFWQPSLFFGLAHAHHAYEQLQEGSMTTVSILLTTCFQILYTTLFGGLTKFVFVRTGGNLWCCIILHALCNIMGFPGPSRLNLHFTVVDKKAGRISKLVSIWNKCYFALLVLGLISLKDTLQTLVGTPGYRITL
CSC inhib – blocks cancer stem cells. cancer stem cell-like cells viability, luminescence. inhibition, % at 7.5 µM. 300,000 compounds, 1.1% hits. AID 2717;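 active = mean at 75% or more and at least half the replicates too; inconclusive = mean and replicates disagree; tested in HMLE shEcad cells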;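 also: 0% = median of negative and 100% = median of positive control wells; the first replicate is given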
PABP FP inh – blocks human PABP binding to poly(A) RNA; inhibition, % at 35 µM; P11940; fluorescence polarization; AID 2014; 290,000 compounds, 1% hits;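 active = 50% or more with normal probe brightness, or confirmed in later tests; inconclusive = above 50% with abnormal brightness, or retests that disagree; inactive = below 50% or failed in later tests; about a fifth of its hits are not listed in these tables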;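 also: calls also rest on retests at 20 µM and on dose response follow-up; controls were probe without protein and protein plus probe with vehicle; some compounds called inactive have numbers as strong as hits; many hits fall short of the cut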
MT1-MMP act inh RFP – also measured in MT1-MMP act inh; calls as there; RFP signal change, %; measured here: RFP expression control read;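 0 = vehicle wells; hits needed this value within 50% of zero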
Numbers without * were called inactive; i = inactive; ? = inconclusive; / = no result given.

SMILES,eIF4H FP inh,UUG fidelity,Env fusion inh,MT1-MMP act inh,MT1-MMP act inh RFP,Rce1 inhib,CSC inhib,PABP FP inh
CC(=O)N(c1cc(C)ccc1C)c1ccccc1[N+](=O)[O-],/,-2.2,0.5,-10.0,6.9,/,/,/
CCCOc1ccc(/C(O)=C2/C(=O)C(=O)N(CCN(C)C)C2c2ccncc2)cc1 (stereo unspecified),/,-24.4,0.8,4.0,2.9,/,-11.5,/
COc1cccc(-n2nc(-c3ccnn3-c3ccc(C)cc3)c(=O)n(C)c2=O)c1,-3.0,-9.2,/,-0.2,0.6,i,-11.5,-4.8
O=C1NC[C@H](Cc2ccccc2)N(C[C@H]2CCCN2C[C@H](Cc2ccccc2)N2C[C@H](Cc3ccc(O)cc3)N(CCc3ccccc3)C(=O)C2=O)C1=O,/,-13.1,-2.3,-0.1,-9.7,/,/,/
Cc1[nH]c2ccccc2c1C(=O)COC(=O)c1c(-c2c(F)cccc2Cl)noc1C,5.0,-4.5,4.6,0.3,-5.1,i,28.2,13.6
COc1ccccc1N1C(=O)C2C(C(=O)c3ccccc3)=NN(c3ccccc3)C2C1=O (stereo unspecified),?,/,13.9,-92.6,3.1,i,-9.1,?
CCOC(=O)Nc1n[nH]c(NC(=O)OCC)c1[N+](=O)[O-],-7.2,/,-17.3,5.3,6.8,i,-3.2,2.8
O=C(CSc1nccn1Cc1ccc(F)cc1)NC1CCCCC1,/,-12.7,-5.1,-1.3,0.0,/,/,/
COC(=O)c1cnn(-c2cc(Oc3ccccc3)ncn2)c1N,-5.7,-8.4,/,5.7,2.8,i,10.2,-5.0
CC12CCC(C/C1=N/NC(=O)COc1ccccc1Cl)C2(C)C (stereo unspecified),0.1,-7.6,3.1,-2.9,2.9,i,-20.7,8.7
CC(C)N(Cc1nc(-c2ccc3c(c2)OCO3)no1)Cc1nccn1C,-8.4,/,-11.5,-0.9,6.1,i,0.0,-5.2
CCOc1c(O)ccc(C2NC(=O)N(C)C(C)=C2C(=O)OC)c1[N+](=O)[O-] (stereo unspecified),20.5,/,-5.2,-1.1,-0.5,i,0.2,8.0
COc1ccccc1OCC(=O)NCC1CCCN(C(=O)c2cccc(C)c2)C1 (stereo unspecified),/,-13.4,-16.9,1.2,2.4,/,/,/
O=C(N/N=C(\c1ccccc1)c1cccnc1)c1cc(O)ccc1O,-2.9,/,5.1,/,/,i,-3.5,-1.2
CC(C)N(Cc1nc(-c2ccccc2)no1)C(=O)CSc1ccccc1,1.2,2.4,32.7,-4.6,-1.8,i,-8.7,-3.5
Cc1cc(C)n(-c2c(F)c(F)c(CO)c(F)c2F)n1,1.7,-17.4,-37.5,4.4,2.8,i,-14.2,6.8
COc1ccc(CCC(=O)N2CCCc3ccccc32)cc1,-0.5,-6.6,-5.1,-1.8,5.0,/,-11.9,-2.9
COc1ccc(CCC(=O)NCCc2nc3ccccc3[nH]2)cc1,15.9,/,13.8,-3.4,-5.8,i,7.1,29.9
CCc1cc(C(=O)NNC(=O)c2csc(N3CCOCC3)n2)sc1C,/,2.4,-22.8,11.3,1.0,/,/,/
Cc1cccc(NC(=O)CSc2nnc(CNC(=O)c3ccc(S(=O)(=O)N(C)C)cc3)n2-c2cccc(C)c2)c1,0.3,-16.4,-26.0,-4.2,-2.8,i,-10.3,-9.6
Cc1ccc(S(=O)(=O)NCC(=O)NCc2cc(=O)n(C)c(=O)n2C)cc1,-0.9,-20.0,5.5,4.7,-0.5,i,2.2,5.3
CCCNC(=O)C1(C)CCN(C(=O)c2ccc(F)cc2Cl)C1 (stereo unspecified),/,-10.0,-5.8,8.1,2.8,/,/,/
CCOC(=O)C1=C(CC)Nc2ccccc2N/C1=N\S(=O)(=O)c1ccc2ccccc2c1,-5.3,/,10.2,-14.3,-17.5,i,38.8,-12.9
Cc1ccc(-c2nonc2NC(=O)c2ccco2)cc1,2.8,-12.8,5.2,-1.9,0.7,i,-23.4,3.8
CC(C)C(NC(=O)c1ccc(F)cc1)C(=O)N1CCOCC1 (stereo unspecified),/,-3.2,1.9,0.9,0.4,/,/,/
NS(=O)(=O)c1ccc(NS(=O)(=O)c2ccc(NC(=O)c3ccc(-c4ccccc4)cc3)cc2)cc1,46.6,/,/,4.2,-1.6,i,13.2,-6.4
CCCC12CN(C(=O)c3ccc(OC)cc3)CC(C)(CN(C(=O)c3ccc(OC)cc3)C1)C2=O,-6.7,-1.4,/,2.0,12.8,i,-19.1,-5.7
CC(C(=O)OCC(=O)Nc1ccc(S(=O)(=O)N2CCCCC2)cc1)N1C(=O)c2ccccc2C1=O (stereo unspecified),-4.5,1.1,/,0.4,-6.0,i,4.4,0.1
Cc1ccc2cc3c(NS(=O)(=O)c4cccc5nonc45)nn(CC(C)C)c3nc2c1,-5.8,-12.3,-3.0,4.1,3.3,i,14.9,13.1
COc1cc2c(cc1OC)C(C(=O)NCc1ccco1)C(c1cccs1)N(C)C2=O (stereo unspecified),-2.9,-0.4,-12.5,2.4,-1.6,i,-5.8,-3.6

6 of the compounds above, with two lines to a compound.
Under each structure – eIF4H FP inh, UUG fidelity, Env fusion inh, MT1-MMP act inh, MT1-MMP act inh RFP, Rce1 inhib, CSC inhib, PABP FP inh
COc1ccccc1N1C(=O)C2C(C(=O)c3ccccc3)=NN(c3ccccc3)C2C1=O (stereo unspecified)
    ?, /, 13.9, -92.6, 3.1, i, -9.1, ?
NS(=O)(=O)c1ccc(NS(=O)(=O)c2ccc(NC(=O)c3ccc(-c4ccccc4)cc3)cc2)cc1
    46.6, /, /, 4.2, -1.6, i, 13.2, -6.4
COc1ccccc1OCC(=O)NCC1CCCN(C(=O)c2cccc(C)c2)C1 (stereo unspecified)
    /, -13.4, -16.9, 1.2, 2.4, /, /, /
Cc1ccc(S(=O)(=O)NCC(=O)NCc2cc(=O)n(C)c(=O)n2C)cc1
    -0.9, -20.0, 5.5, 4.7, -0.5, i, 2.2, 5.3
CC(C(=O)OCC(=O)Nc1ccc(S(=O)(=O)N2CCCCC2)cc1)N1C(=O)c2ccccc2C1=O (stereo unspecified)
    -4.5, 1.1, /, 0.4, -6.0, i, 4.4, 0.1
COc1cccc(-n2nc(-c3ccnn3-c3ccc(C)cc3)c(=O)n(C)c2=O)c1
    -3.0, -9.2, /, -0.2, 0.6, i, -11.5, -4.8

(further entries)
SMILES,eIF4H FP inh,UUG fidelity,Env fusion inh,MT1-MMP act inh,MT1-MMP act inh RFP,Rce1 inhib,CSC inhib,PABP FP inh
COc1ccc(-n2nc(C(=O)NCC(=O)NCCCN3CC(C)CC(C)C3)c3ccccc3c2=O)cc1OC (stereo unspecified),8.8,-11.3,3.8,2.0,7.6,i,-13.5,1.9
COc1ccc(CNc2nccs2)cc1OC,-12.2,-8.3,11.2,2.6,2.8,i,-3.4,-0.7
O=C(COc1ccc([N+](=O)[O-])cc1)Nc1ccc(CN2CCOCC2)cc1,5.8,/,21.9,5.2,-3.4,i,-16.7,-6.4
O=C(c1cccc(S(=O)(=O)N2CCN(c3ccc(F)cc3)CC2)c1)N1CCCC(C(F)(F)F)C1 (stereo unspecified),/,-7.0,/,-3.8,-28.8,i,9.3,/
CCCCn1c(N)c(N(CC(C)C)C(=O)CCNC(=O)c2ccc(Cl)cc2)c(=O)[nH]c1=O,/,/,-36.4,1.2,3.7,i,-6.9,/
C=CCNC(=O)COC(=O)c1ccc(Cl)c(S(N)(=O)=O)c1,1.2,/,-9.9,-0.6,0.2,i,/,-17.4
CCc1ccc(-c2cc(C)no2)cc1S(=O)(=O)Nc1ccccn1,-11.7,-18.7,-1.3,1.0,1.4,i,-7.2,-5.2
C=CCOc1nc2c(c(=O)n(C)c(=O)n2C)n1Cc1ccc(Cl)cc1Cl,-11.3,-5.2,/,-7.9,-18.9,i,/,-4.7
CC1(C)Cc2ccccc2-c2[nH]c(=S)[nH]c(=O)c21,-6.8,-15.1,-18.3,-1.8,1.0,i,0.3,-3.3
COc1ccc(C2NC(=O)c3ccccc3N2)cc1OC (stereo unspecified),1.8,-10.6,/,4.0,-1.6,i,-4.1,1.6
COc1ccc(-c2sc3cc(OC)c(OC)cc3c2C#CCO)cc1,/,46.9,-11.2,4.8,0.6,/,/,/
COc1ccc(Nc2ncc3c(n2)CC(c2ccc(C)cc2)CC3=O)cc1 (stereo unspecified),-4.3,-7.4,41.7,2.9,-0.1,i,-5.0,5.3
Cc1ccc(/C=N/Nc2ccc(C(=O)O)cc2)o1,-0.2,/,-24.1,2.1,1.5,i,1.6,19.8
Fc1ccccc1Cc1ccc(Cl)nn1,-3.8,/,8.1,-4.6,2.3,i,7.2,22.3
CCOC(=O)C(N)CSC1CC(=O)N(c2ccc(OC)cc2)C1=O (stereo unspecified),4.0,-20.9,1.7,-1.7,0.2,i,-7.0,-1.0
Cc1cc(NC(=O)Nc2cc(F)ccc2C)n(C)n1,5.2,-2.8,/,4.4,1.0,i,-11.7,-3.2
COc1ccc(CNC(=O)c2ccncc2)cc1,-1.4,-0.8,-94.5,1.4,-2.9,i,3.6,4.0
CCN(CC)C(=O)Cn1nnc(-c2ccc(C)o2)n1,3.3,-4.1,-199.9,-7.6,-9.1,i,-8.4,3.9
CCOC(=O)N1CCN(c2nc(-c3ccc(F)cc3)cs2)CC1,-18.0,-1.7,-46.2,-3.9,-3.5,i,12.0,-11.0
CC(C)CCN1CC(C(=O)NCCC2=CCCCC2)CC1=O (stereo unspecified),-8.3,-14.1,/,-0.5,-0.5,i,-0.9,-8.8
FC(F)(F)c1ccc2c3n(nc2c1)CCN=C3c1ccc(Cl)cc1,/,-23.7,29.0,2.5,2.6,i,19.0,/
COC(=O)c1ccc(CC(=O)c2nc3ccccc3s2)cc1,6.3,-42.4,-9.2,5.1,7.2,i,-5.2,4.4
CCn1cc(C(=O)Nc2cccc(C)c2)c(=O)c2ccc(C)nc21,5.5,/,/,/,/,i,-11.5,7.4
Cc1ccc(C2CC(=O)NC(SCCC(C)C)=C2C#N)cc1 (stereo unspecified),-4.7,-20.8,13.3,-3.5,-5.9,i,-3.1,-7.1
CCC(C)N=C1CC(C)(C)CC(=O)/C1=C(/O)Cc1ccccc1 (stereo unspecified),4.1,3.9,-5.4,2.4,-0.9,i,-11.7,-13.3
Cc1ccc(/C(O)=C2\C(=O)C(=O)N(c3cc(C)on3)C2c2cccc(Br)c2)cc1 (stereo unspecified),3.8,9.4,/,-4.0,1.8,i,/,10.0
O=C1OCc2cc(NC(=O)C34CC5CC(CC(C5)C3)C4)ccc21,-7.4,-11.9,0.7,4.0,1.7,i,/,-3.1
C/C(=N\NC(=O)c1cccc(S(=O)(=O)Nc2ccccc2Cl)c1)c1ccco1,-13.7,/,11.2,1.9,5.1,i,-21.0,10.5
CCN(C[C@H]1N[C@@](C)(C(=O)OC)[C@H]2C(=O)N(C)C(=O)[C@@H]12)C(=O)COc1ccccc1,/,-14.7,3.2,1.2,5.6,/,2.6,/
O=C(Nc1ccccc1N1CCOCC1)c1ccc([N+](=O)[O-])cc1,-14.7,-12.2,-18.2,2.0,0.4,i,-12.1,-6.4
c1cnc2cc(-c3ccsc3)ncc2c1,/,21.4,-10.9,-2.0,-2.7,/,2.2,/
